Biofilm kill mix – clotrimazole potentiators killing C. albicans biofilm, primary screen, 4-compound mixtures; C. albicans biofilm persisters + clotrimazole, fluorescence viability; primary screen in compound mixtures of four per well; inhibition, % at 7.6 µM; 120,000 compounds, 0.02% hits;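 active = inhibition above 30.3% in the primary screen of four-compound pools, then above 30% when the compound was retested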;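 also: compounds exposed to preformed 24 h biofilms for 48 h; the number belongs to the whole pool; some results filed as inactive read as strong as hits; inactives centre near 12; 0% = biofilm with clotrimazole alone and 100% = kill control; retested singly at about 60 µM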
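Assay system: C. albicans biofilms / Medium: RPMI/MOPS medium, pH 7.0 / Schedule: biofilm formation 24 h, compound exposure 48 h, 37 °C / Measured by: Alamar Blue fluorescence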
An asterisk follows results filed as active. Only part of the results is shown (hit frequency here may not be typical).

Molecule	Biofilm kill mix
N#C/C(=C\c1cc(Cl)c(OCc2ccc(Cl)cc2)c(Cl)c1)C(N)=O	16
CNC(=S)N1N=C(c2ccc(Br)cc2)CC1c1ccc(OC)cc1 (configuration not stated)	3
COc1cccc(C(=O)Nc2ccncc2)c1	29
Cc1cc(=O)[nH]c(N/N=C/CCc2ccccc2)n1	9
Cc1ccccc1NC(=O)NC(C)(C)CC(C)(C)C	-4
O=C(Nc1cccnc1)c1cc(-c2ccccc2O)on1	1
Cc1[nH]n(-c2ccccc2)c(=O)c1C(C[N+](=O)[O-])c1ccc(Cl)cc1 (configuration not stated)	10
COc1ccc(/C=C2/Sc3ccc(C(=O)N4CCc5ccccc5C4)cc3NC2=O)cc1	15
O=C(Nc1ccccc1)c1ccc(-c2ccccc2)s1	28
CS(=O)(=O)NCCCCNc1ccc(C(F)(F)F)cc1[N+](=O)[O-]	18
COc1cc(NC(=S)NCCCN2CCOCC2)cc(OC)c1OC	15
COc1ccc(/C=C/C(=O)c2c(O)ccc3c(C)cc(=O)oc23)cc1	27
OC(c1cc(-c2ccc(C(F)(F)F)cc2)nc(C(F)(F)F)c1)C1CCCCN1 (configuration not stated)	10
CCOc1ncccc1C(=O)OCc1ccc(C(=O)OC)cc1	20
COc1ccccc1-c1noc(CCCC(=O)Nc2ccc(C(N)=O)cc2)n1	7
CC1CN(CC(=O)Nc2ccc([N+](=O)[O-])cc2Br)CC(C)O1 (configuration not stated)	2
CCn1cc(CNCc2cn(C)nc2-c2ccc(C3CCCCC3)cc2)cn1	13
COc1cc(N2C(=O)CC3(CCCC3)CC2=O)cc(OC)c1OC	25
S=c1[nH]nc(CSCCOc2ccccc2)o1	0
CC(C)n1nc(C(=O)Nc2nc3ccccc3[nH]2)c2ccccc2c1=O	10
COC(=O)Nc1ccc(S(=O)(=O)N2CCC(C(=O)N3CCCCC3C)CC2)cc1 (configuration not stated)	10
CCCNC(=O)C1CC(=O)N(c2ccc(OCC)cc2)C1 (configuration not stated)	18
COc1cc(C)nc(NC(=S)N(C)C(=O)c2ccccc2)n1	14
O=C(COc1ncnc2cc([N+](=O)[O-])ccc12)N(CCc1ccccc1)Cc1ccccc1	9
COc1ccc2c(c1OC)C(C1c3c(cc4c(c3OC)OCO4)CCN1C)OC2=O (configuration not stated)	-4
O=C(CN1C(=O)C2C3CCC(C3)C2C1=O)OCC(=O)c1cccc([N+](=O)[O-])c1 (configuration not stated)	23
C=CCNCCCCOc1ccc(OCc2ccccc2)cc1	14
CCOc1ccc(NC(=O)c2cc(Cl)nc3ccccc23)cc1	8
Cc1c(Cl)cccc1NS(=O)(=O)c1ccc2c(c1)C1C=CCC1C(c1ccc(C(=O)O)cc1)N2 (configuration not stated)	12
CN(C)c1ccc(/C=N/NC(=O)c2cccc(N3CCCC3=O)c2)cc1	10
O=C(OCC(=O)N1CCCc2ccccc21)c1cnc(Cl)c(Cl)c1	17
OC(CN1CCN(Cc2ccccc2)CC1)Cn1c2ccccc2c2ccccc21 (configuration not stated)	15
CC(=O)Nc1ccc(SC[C@H](Cc2ccccc2)N2CCN(CCc3ccccc3)CCC2=O)cc1	15
CCN(CC)C(=O)CSc1ncnc2c(-c3ccc(OC)cc3)nsc12	8
Cc1cccc(NCC(=O)N/N=C\c2cccn2C)c1	-5
Cc1ccc2c(C)c(C(=O)NCc3ccc(S(N)(=O)=O)cc3)oc2c1	19
C#CCOCCOCCOCCNc1nc(N2CCN(C(=O)[C@H](CCCCN)n3cc(CCCC)nn3)CC2)nc(N2CCN(C(=O)[C@H](CCCCN)n3cc(CCCC)nn3)CC2)n1	13
CC(=O)c1ccc([C@H]2C[C@@]34CN(C(=O)OC(C)(C)C)S(=O)(=O)[C@H]3C[C@H]2O4)cc1	11
N=c1c2c(n(Cc3ccc([N+](=O)[O-])cc3)c3c1CCC3)CCCC2	13
O=C(COC(=O)c1ccccc1C(=O)c1ccc(Cl)cc1)NC(c1ccccc1)c1ccccc1	27
O=C(c1cc([N+](=O)[O-])ccc1Cl)N1CCN(c2ccc([N+](=O)[O-])cc2)CC1	6
CN(C)CCNC(=O)Cc1ccc([N+](=O)[O-])cc1	15
COc1ccc(Cl)cc1NC(=O)CSc1ncnc2c1oc1ccccc12	20
CC(=O)c1c(C)[nH]c(C(=O)Nc2nc(C)cs2)c1C	-1
NCCCC[C@H]1CNC(=S)N1CCc1cc(C(F)(F)F)cc(C(F)(F)F)c1	16
O=C(O)Cc1sc(N/N=C\c2ccncc2)nc1-c1ccccc1	23
O=C(c1ccc(COc2ccc(Cl)cc2)o1)N1N=C(C(F)F)CC1(O)C(F)F (configuration not stated)	15
CCOc1ccc(C2C(C(=O)Nc3ccccc3)=C(C)N=c3s/c(=C/c4cccc(OCC(=O)O)c4)c(=O)n32)cc1 (configuration not stated)	16
CCNc1nc(NCC)nc(SCCOC(=O)c2ccccc2)n1	16
CNC(=S)N/N=C/c1cc(C)ccc1C	13
CCOC(=O)/C(C#N)=N/Nc1c(C)n(C)n(-c2ccccc2)c1=O	2
CCOC(=O)c1cc(C#N)c(N2CCN(C(=O)c3ccccc3)CC2)nc1C(F)(F)F	15
Cn1nc(C(F)(F)F)c2cc(C(=O)Nc3ccc(C(F)(F)F)cc3)sc21	16
Cc1cccc(-n2c(CNC(=O)Cc3ccccc3)n[nH]c2=S)c1	-10
O=C(Nc1cccnc1N1CCOCC1)c1cccs1	9
CCOC(=O)C1(CC2CC2)CCN(Cc2cnc(N(C)C)s2)CC1	-6
CC(=O)c1ccc(NCC2COc3ccccc3O2)c([N+](=O)[O-])c1 (configuration not stated)	9
Cc1ccc(C(=O)N2CCN(c3ccccn3)CC2)cc1	15
O=C(COc1ncnc2ccccc12)NCCc1ccccc1	16
COCCCNC(=O)c1cc(C(=O)c2ccccc2Br)c[nH]1	10

(more compounds)
Molecule	Biofilm kill mix
O=C(Oc1ccc2c(c1)OCO2)C12CC3CC(CC(C3)C1)C2	17
COc1ccc(CCNC(=O)COc2nncc3ccccc23)cc1	9
COc1ccccc1NC(=O)CSCC(=O)N1c2ccccc2CCc2ccccc21	20
CC(=O)Nc1ccc(NC(=O)CSc2nnc(-c3ccco3)o2)cc1	11
COc1cc2c(cc1OC)CN(CCC(=O)c1ccc(Br)cc1)CC2	20
O=C(COC(=O)Cc1ccccc1[N+](=O)[O-])NCc1ccccc1Cl	10
NNC(=O)C1CC(O)CN1S(=O)(=O)c1ccc(Cl)cc1 (configuration not stated)	-1
CC(=O)n1cc([C@H]2C=C(C(=O)NCc3ccccc3)O[C@@H](OCc3ccc(CO)cc3)C2)c2ccccc21	14
Cc1cc(C(=O)COC(=O)CC2Sc3ccccc3NC2=O)c(C)n1-c1ccc(Br)cc1 (configuration not stated)	15
COc1ccc(NS(=O)(=O)c2cccc(C(=O)N/N=C(\C)c3ccncc3)c2)cc1	8
C[N+]1(CC(=O)OCCCC2CCCCC2)CCCC1	5
CC(Nc1nc(N2CCN(CCO)CC2)nc2ccccc12)c1ccccc1 (configuration not stated)	18
COc1ccc(C(=O)Oc2ccc(/C=N/NC(=O)c3ccccc3OC)cc2[N+](=O)[O-])cc1	7
C/C(=N\Nc1ccc(Cl)c(C(=O)O)c1)c1cc2ccccc2o1	4
COc1ccccc1NCCC(=O)OCC(=O)NC1CCCC(C)C1C (configuration not stated)	0
N#Cc1cc([N+](=O)[O-])cnc1N(CCO)CCO	2
CC(C)(C)c1cc(C(=O)NNC(=O)c2ccc(Cl)cc2)no1	14
COc1ccc(-n2cc(CNCc3cccnc3)c(-c3cccc(F)c3)n2)cc1	22
Cc1ccc(/C=N\NC(=O)/C(=C\Nc2nccc(C)n2)NC(=O)c2ccccc2)cc1	18
O=C(NCC1(c2ccccc2)CCCC1)c1ccc(Br)cc1	16
C/C(=N\OCC(=O)Nc1ccccc1C(C)(C)C)c1ccc2c(c1)OCCO2	20
O=[N+]([O-])c1cc2c(cc1/C=N/n1c(-c3ccccn3)n[nH]c1=S)OCO2	15
CC1(C)Cc2nc3oc4c(NCCCN5CCOCC5)ncnc4c3cc2CO1	0
Cc1cc(C(C)(C)C)ccc1OCCCCN1CCCC1	8
COc1ccc(CCNC(=O)Cn2c(=O)[nH]c3ccsc3c2=O)cc1OC	10
Cc1nc(Nc2ccc(S(=O)(=O)N3CCCC3)cc2)c2nnn(Cc3ccccc3)c2n1	10
Cc1cccc(Nc2nc(N)c([N+](=O)[O-])c(N3CCCC(C)C3)n2)c1 (configuration not stated)	15
Cc1ccc(S(=O)(=O)N=S(CCO)CCO)cc1	14
O=C1NC2(CCCC2)Oc2ccccc21	15
O=C(CN1C(=O)CC(c2ccccc2)Sc2ccccc21)NCC1CCCO1 (configuration not stated)	5
CCN1CCN(CC(O)COCCOc2ccc(Br)cc2)CC1 (configuration not stated)	8
O=C(c1cccnc1)C1CCCN(Cc2nc(Cc3ccccc3)no2)C1 (configuration not stated)	7
O=S(=O)(Nc1ncccn1)c1ccc(NC(=S)NCc2cccnc2)cc1	2
COc1ccc2oc3ccccc3c(=O)c2c1	20
CCC(=O)OCC(=O)Nc1cc(C)c(C)cc1[N+](=O)[O-]	26
Cc1ccc(-c2nnn(CC(=O)N(c3cnc4ccccc4c3)C(C(=O)NC3CCCC3)c3ccncc3)n2)o1 (configuration not stated)	7

Part of the list above, as labelled records:
> CCNc1nc(NCC)nc(SCCOC(=O)c2ccccc2)n1
  Biofilm kill mix: 16
> CNC(=S)N/N=C/c1cc(C)ccc1C
  Biofilm kill mix: 13

The list continues:
Molecule	Biofilm kill mix
COc1ccc(/C=C2\SC(=O)N(CCNC(=O)C3CCN(S(=O)(=O)c4cccs4)CC3)C2=O)cc1	12
O=C(COC(=O)/C=C/C(=O)N1CCN(c2ccccc2)CC1)NC(c1ccccc1)c1ccccc1	17
CCOC(=O)c1csc(-c2ccc3c(c2)CCO3)n1	17
CC(C)CC(=O)Nc1nnc(CSCc2ccc(F)cc2)s1	11
CC(C)(C)[C@H]1C=C(C(=O)N2CCN(Cc3ccc4c(c3)OCO4)CC2)O[C@@H](OCc2ccc(CO)cc2)C1	11
O=C(c1cnn2c(C(F)F)cc(-c3ccccc3)nc12)N1CCSCC1	12
Cc1ccccc1Nc1nnc(SCC2CCCCO2)s1 (configuration not stated)	7
O=C(Nc1ccc(Nc2ccccc2)cc1)Nc1ccccc1Cl	19
COC(=O)c1ccc(COC(=O)CCS(=O)(=O)c2ccc(C)cc2)cc1	6
CC(=O)OCC1OC(OC(C)=O)C(NC(=O)Cc2ccccc2)C(OC(C)=O)C1OC(C)=O (configuration not stated)	12
Nc1ccc(SC(F)(F)F)cc1	7
O=C(CN1C(=O)C2C3c4ccccc4C(c4ccccc43)C2C1=O)Nc1cccc(C(=O)O)c1 (configuration not stated)	4
COc1ccccc1OCC(=O)NNc1c2ccccc2nc2ccccc12	14
COc1cc(OC)cc(C(=O)OCC(=O)Nc2sccc2C(N)=O)c1	18
O=C(COc1ccc(Cl)cc1)Nc1nnc(-c2ccco2)o1	22
COc1cccc(C=Nc2ccccc2C#N)c1O	6
COc1ccc(NC(=O)c2ccccc2)cc1NS(=O)(=O)c1ccc(F)cc1	10
CC1=CC(C)(C)NC(=S)N1c1ccc(C)c(C)c1	9
COc1ccc(N2C(=O)C3C(C2=O)C(C(=O)c2ccccc2)N2CCCC32)cc1 (configuration not stated)	17
CN(C)S(=O)(=O)c1cccc(NC(=O)Cc2ccc(Cl)cc2)c1	13
CC(=O)Oc1cccc(/C=C2\C=C(c3ccc(C)cc3)OC2=O)c1	13
CN1CCC(N(C)CC(=O)Nc2ccc3c(c2)OC(F)(F)O3)CC1	10
COc1ccc(CC(=O)NCc2nnc(SCC(=O)Nc3nccs3)n2C)cc1	7
CCN(CC(=O)Nc1sc2c(c1C#N)CCCC2)Cc1nc2ccccc2c(=O)[nH]1	14

Arranged by SMILES length (ascending): part of the list above.
Molecule	Biofilm kill mix
S=c1[nH]nc(CSCCOc2ccccc2)o1	0
Cc1ccccc1NC(=O)NC(C)(C)CC(C)(C)C	-4
CC1=CC(C)(C)NC(=S)N1c1ccc(C)c(C)c1	9
CN(C)CCNC(=O)Cc1ccc([N+](=O)[O-])cc1	15
COc1ccc(CCNC(=O)Cn2c(=O)[nH]c3ccsc3c2=O)cc1OC	10
COC(=O)Nc1ccc(S(=O)(=O)N2CCC(C(=O)N3CCCCC3C)CC2)cc1 (configuration not stated)	10

Remaining list, next part
Molecule	Biofilm kill mix
Cc1ccc2c(c1)sc1nc(=O)n(-c3ccccc3)c(=O)n12	8
O=C(NC(=S)Nc1cccc([N+](=O)[O-])c1)c1ccco1	3
CN1CCN(C(=S)Nc2ccc(S(N)(=O)=O)cc2)CC1	13
Cc1ccc2c(c1)Cc1nc3ccccc3nc1-2	8
Cc1cccc2c(C(=O)N3CCN(C(=O)c4ccco4)CC3)cc(-c3cccc(Br)c3)nc12	-3
CCC1Oc2ccc(C)cc2N(CC(=O)N(Cc2ccc(C)o2)C2CCCC2)C1=O (configuration not stated)	6
O=[N+]([O-])c1cc(C(F)(F)F)ccc1-n1nnc2ccccc21	16
COc1ccc(CN(Cc2ccc(OC)cc2)S(=O)(=O)c2ccc(-n3cnnn3)c(C)c2)cc1	4

Assay outcomes: PubChem BioAssay, PCMD
